Bioassay records deposited in PubChem by National Center for Advancing Translational Sciences (NCATS).
miR-21 reporter = qHTS Assay for Modulators of miRNAs and/orActivators of miR-21; HeLa miR-21 FLuc reporter, luciferase, 48 h; Potency, µM (top dose mostly 38.3 µM), without a hit: at the top dose reporter change, positive = more light; 340,000 tested, under 10 active; active = well fitted rising curve with a large enough effect; inconclusive = small, poorly fitted or top-dose-only effect; inactive = no such curve, though single readings can be large or run the other way;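 further: % of control where 0% means no effect; miR-21 action dims this reporter so a rising signal means less miR-21 action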
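Using DMEM plus 10% FBS, HeLa miR-21-FLuc cells are incubated with test compounds (final up to about 40uM) for 48 hours; firefly luciferase signal is then imaged following reagent-mediated lysis.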
Rango-impB inh = qHTS Assay for Inhibitors of Rango (Ran-regulated importin-beta cargo) - Importin beta complex formation | Importin subunit beta-1 (Homo sapiens), Q14974 | Rango CFP/YFP FRET sensor + importin beta, 45 min | Potency, µM (highest dose often 92.2 µM), for inactives: at the top dose inhibition of complex formation | hit rate 0.031% among 340,000; active = rising FRET ratio curve, often small or poorly fitted; inconclusive = mostly compound fluorescence or quenching in the first reads; inactive = flat curves in all reads;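 further: potency means the concentration at half of the fitted maximal effect; 0% = DMSO wells and 100% = buffer wells lacking importin beta; nearly all actives have a fitted effect of over 15% in size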
Target sequence (Q14974 whole entry, looked up): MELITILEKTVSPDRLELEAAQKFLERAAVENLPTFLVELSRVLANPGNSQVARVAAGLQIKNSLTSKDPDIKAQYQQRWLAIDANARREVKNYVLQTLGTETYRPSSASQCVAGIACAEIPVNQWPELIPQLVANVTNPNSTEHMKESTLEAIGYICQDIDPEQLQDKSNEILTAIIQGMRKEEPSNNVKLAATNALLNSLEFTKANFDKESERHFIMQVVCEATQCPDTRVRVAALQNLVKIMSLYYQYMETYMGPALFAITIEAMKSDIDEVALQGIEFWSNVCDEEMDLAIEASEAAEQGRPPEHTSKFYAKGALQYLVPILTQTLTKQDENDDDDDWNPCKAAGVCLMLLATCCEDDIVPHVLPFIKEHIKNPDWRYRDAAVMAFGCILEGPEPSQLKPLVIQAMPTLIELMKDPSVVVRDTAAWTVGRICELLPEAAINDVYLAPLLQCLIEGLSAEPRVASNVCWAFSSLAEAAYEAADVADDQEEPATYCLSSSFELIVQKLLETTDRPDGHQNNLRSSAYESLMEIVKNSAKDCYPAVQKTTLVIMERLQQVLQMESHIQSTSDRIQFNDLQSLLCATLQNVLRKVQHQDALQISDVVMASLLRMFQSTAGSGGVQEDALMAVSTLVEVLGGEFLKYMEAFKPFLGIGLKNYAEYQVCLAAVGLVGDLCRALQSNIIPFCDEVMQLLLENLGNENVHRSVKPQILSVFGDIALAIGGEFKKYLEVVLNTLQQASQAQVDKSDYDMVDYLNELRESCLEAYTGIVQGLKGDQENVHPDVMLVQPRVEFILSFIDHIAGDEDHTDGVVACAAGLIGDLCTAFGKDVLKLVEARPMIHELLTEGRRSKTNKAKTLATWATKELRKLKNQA
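FRET biosensor Rango (snurportin 1 IBB between N-terminal EYFP and C-terminal Cerulean), 50 nM in PBS/1 mM DTT/0.02% Tween-20/0.1% BSA, preincubated 5 min RT with compound; 0.125 microM importin beta added, 45 min RT, CFP/YFP FRET ratio read.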
Rango dissoc inh = qHTS Assay for Inhibitors of RanGTP induced Rango (Ran-regulated importin-beta cargo) - Importin beta complex dissociation; Snurportin-1 (Homo sapiens) + GTP-binding nuclear protein Ran (Homo sapiens) + Importin …; hit rate 0.071% among 340,000; Potency, µM (titrated, usually from 46.1 µM), without a hit: at the top dose activity change, negative = inhibition; Biochemical FRET Rango-importin beta, RanGTP-induced dissociation; active means falling FRET ratio curve, often poorly fitted, with flat reads before Ran was added; inconclusive means other falling curves, or compound fluorescence or quenching; inactive means flat or rising ratio curve;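 further: potency means the concentration at half of the fitted maximal effect; % of control where 0% means no effect; nearly all actives have a fitted effect of over 45% in size; -100% = wells without RanGTP and RCC1; the record marks most hits as doubtful in a second field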
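Rango (0.1 uM)–importin beta (0.25 uM) complex; RanGTP-RCC1 trigger; 45 min RT; CFP/YFP FRET read.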
GLA inh pH 4.5 = qHTS Assay for Inhibitors of Human alpha-Galactosidase at pH 4.5 | purified enzyme, 4-MU-alpha-Gal fluorescence, pH 4.5 | activity change, negative = inhibition, % at 105 µM | 230,000 tested, under 10 active | AID 1467, 2008; inconclusive = small, poorly fitted or top-dose-only inhibition, or a rising curve; inactive = flat fitted curve, though single readings scatter; no compound was filed as active;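 further: 0% = full activity with enzyme and -100% = basal without enzyme; dose as in the result columns while the protocol names 77 µM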
Numbers without * were called inactive; ? = inconclusive; · = no result given; & = joins results of further samples. Not all compounds are listed. The share of hits here may be higher or lower than overall.

Structure | miR-21 reporter | Rango dissoc inh | Rango-impB inh | GLA inh pH 4.5
CC(C)(C)NC(=O)C1CCN(S(=O)(=O)c2ccc(Br)cc2)CC1 | -1.8% | 1.2% | 1.8% | -3.1
Cc1c(-c2nc(N)nc(Nc3ccccc3)n2)oc2ccccc12 | -45.2% | -0.1% | ? | -17.6
CCCCN(C(=O)c1cccc(S(=O)(=O)N2CCCC2)c1)c1c(N)n(CCC)c(=O)[nH]c1=O | · | -14.8% | -5.1% | ·
CCC(C)(C(=O)NC1CCCCC1)N(CC1CCCO1)C(=O)Cc1cccs1 (configuration not stated) | 6.1% | -9.2% | 0.1% | 7.6
COc1cc(-c2noc(C)n2)cc(OC)c1OC | 0.7% | 11.7% | 0.2% | 2.6
NNC(=O)CSc1c(-c2cccs2)[nH]c2ccccc12 | -2.0% | 17.2% | -2.1% | -3.7
O=C1c2cccc(NCCCNCCO)c2C(=O)c2cccc(NCCCNCCO)c21 | · | ? | 15.6% | ·
CCOC(=O)c1[nH]ncc1CN1CCN(Cc2ccccc2)C(CCO)C1 (configuration not stated) | 1.3% | 14.6% | -1.5% | 3.4
O=C1NC(c2cccc(OCc3ccccc3)c2)Nc2ccccc21 (configuration not stated) | · | -10.1% | -4.8% | ·
O=C1C=C(c2cccc3c2sc2ccccc23)C[C@@H](c2ccc(F)cc2)C1 | · | -4.6% | -1.7% | ·
Nc1nc(NCc2c(F)cccc2Cl)nn1-c1ccccc1 | -26.4% | 2.6% | -1.5% | 5.6
O=C(C1CCN(Cc2cn[nH]c2-c2ccc(F)cc2F)CC1)N1CCOCC1 | -2.5% | -0.7% | -1.1% | -8.9
CCOc1ccc(-n2c(N)c(C(=O)N3CCN(C)CC3)sc2=S)cc1 | -4.5% | -9.9% | 3.7% | -1.9
Cn1c(=O)c2c(ncn2CC(=O)OCC(=O)NCc2ccc(Cl)cc2)n(C)c1=O | -3.9% | 0.4% | 3.6% | 7.1
CCCS(=O)(=O)c1snnc1C | -0.6% | 21.9% | -1.9% | 8.6
CC(=O)Nc1ccc(NC(=O)CCc2c(C)noc2C)cc1 | · | 12.5% | -2.1% | ·
C=CCC(C)(NCc1ccccc1)c1ccccc1 (configuration not stated) | 0.6% | -3.2% | -0.2% | 3.6
CC(=O)N1CCN(Cc2nc3cc(NC(=O)C4CCCCC4)ccc3n2C)CC1 | -10.2% | -11.5% | -2.9% | 3.7
CC1=C(C#N)C(Nc2cccc(C)n2)(C(F)(F)F)C(=O)N1 (configuration not stated) | -1.0% | -14.5% | -1.0% | 0.3
CCOc1ccc(NC(=S)NC(=O)c2ccco2)cc1 | -46.2% | 7.0% | 0.3% | 5.9
O=C(Nc1ccc(Br)cn1)c1cccc(C(=O)Nc2ccc(Br)cn2)c1 | -36.0% | 21.1% | 5.9% | ·
O=C(CSCc1ccc(Cl)cc1)Nc1ccc2c(c1)OCCO2 | -34.2% | 6.2% | -0.7% | -1.0
COc1ccc(-n2c(-c3ccco3)nc3c(cnn3-c3ccc(C)cc3)c2=O)cc1 | -4.6%&3.3% | 1.3% | -1.7% | -10.0
COc1ccccc1-c1nc(SCC(=O)N2CCC(C(N)=O)CC2)n[nH]1 | · | -5.3% | -1.6% | ·
CCN1CCN(C(=O)Cn2nc(-c3ccc(Cl)cc3)ccc2=O)CC1 | 1.0% | 25.0% | 2.7% | -0.1
COc1ccc(CNC(=O)c2cc(C(=O)C3CC3)c[nH]2)cc1 | 6.6% | -8.6% | -2.6% | ·
COc1cc2nc(=S)n3[nH]c(CCn4c(C)nc5ccccc54)nc3c2cc1OC | 1.3% | -5.8% | 4.9% | -7.3
O=C(OCC(=O)N1CCN(C(=O)c2ccco2)CC1)c1cncc(Br)c1 | · | -2.4% | 1.5% | ·
O=C(/C=C/c1cc([N+](=O)[O-])ccc1OC(F)F)NCc1ccc(Cl)cc1 | -1.3% | 2.2% | 1.8% | 2.3
Cc1cc(OCC(=O)Nc2ccc(N3CCN(C(=O)c4ccco4)CC3)cc2)cc(C)c1Cl | -3.8% | 1.9% | -2.7% | -3.6
O=C(c1cc(C2CC2)nn1-c1ccccc1)N1CCN(c2ncc(C(F)(F)F)cc2Cl)CC1 | · | 1.0% | -1.2% | ·
Cc1ccc(NC(=O)COC(=O)Cn2c(C)csc2=O)cc1S(=O)(=O)N1CCOCC1 | · | 5.5% | 3.4% | ·
O=C(NCc1ccc2c(c1)OCO2)c1cc2n(n1)C(C(F)(F)F)CC(c1ccc3c(c1)OCO3)N2 (configuration not stated) | -5.3% | 9.2% | 9.1% | -7.7
Cc1cccc(N2C(=O)C(O)=C(C(=O)c3cccs3)C2c2cccc(Oc3ccccc3)c2)n1 (configuration not stated) | -1.9% | 0.9% | 5.9% | -12.0
CSc1nc(C)c(C(=O)Nc2ccccc2)c(-c2ccco2)c1C#N | 4.4% | 8.4% | 2.3% | 6.1
O=C(/C=C/c1ccco1)Nc1ccccc1N1CCCCC1 | -2.3% | -2.9% | -0.4% | -2.8
COc1ccc(OC)c(C2C(C(C)=O)=C(O)C(=O)N2CCN2CCOCC2)c1 (configuration not stated) | -3.6% | 4.4% | 1.0% | 11.5
COc1ccc(C(=O)C[n+]2ccc(C)cc2)cc1 | -2.1% | 0.9% | -2.3% | -4.9
CCc1nnc(NC(=O)CCC(=O)Nc2ccccc2)s1 | -7.2% | -1.0% | 2.7% | 1.0
CCc1cc(CNC(=O)C2CCC(=O)N(CCc3ccc(OC)cc3)C2)on1 (configuration not stated) | 0.1% | 4.4% | 0.9% | ·
O=C(CNC(=O)c1ccccc1)Oc1ccc([N+](=O)[O-])cc1 | 6.6% | -11.1% | ? | ·
CC(=O)N1CCc2cc(C(=O)CN3CCN(c4ccccn4)CC3)ccc21 | -33.7% | -7.0% | -0.4% | -3.3
COCCN(CC(=O)NCc1ccc2c(c1)OCO2)C(=O)CCC(=O)Nc1nccs1 | -2.0% | 4.4% | 0.1% | -9.4
Cc1cccc(-c2nsc(SCC(=O)NCC3CCCO3)n2)c1 (configuration not stated) | -26.5% | -4.0% | 0.1% | -11.2
COc1nc(NCc2ccco2)nc(NC2CCCCC2)n1 | -51.1% | -1.6% | -3.4% | -7.0
COc1cc(NC(=O)c2ccccc2)c(OC)cc1NC(=O)Cc1ccccc1 | -0.4% | 4.6% | 0.4% | ·
CCn1cc(C(=O)Nc2sc(C)c(C)c2C(=O)OC)cn1 | -0.5% | -4.0% | 2.1% | 16.4
CC(NC(=O)CN1CCN(C(=O)c2cccs2)CC1)c1ccc(F)cc1F (configuration not stated) | · | 33.6% | -2.9% | ·
O=C(CSc1nnnn1-c1ccccc1)Nc1ccc(Cl)cc1 | 10.5% | 1.9% | 5.1% | 3.2
Cc1ccc(CNC(=O)c2ccccc2NC(=O)CSc2nnnn2C)cc1 | -7.5% | -9.0% | -0.1% | 1.4
O=C(CN(Cc1ccc(F)cc1)S(=O)(=O)c1ccccc1)N1CCCCC1 | -3.9% | 1.1% | -1.2% | 7.8
CCOC(=O)N1CCN(S(=O)(=O)c2c(C)cc(C)cc2C)CC1 | -5.8% | 9.2% | 0.1% | -22.2
COc1ccc(/C=C/c2c(-c3cccc(C)c3)oc3ccc(N4CCOCC4)cc23)cc1 | · | -6.2% | ? | ·
O=C(NCCc1ccccc1)C1CCCN(S(=O)(=O)c2cccc3nsnc23)C1 (configuration not stated) | -5.1% | -10.0% | 0.0% | -3.8
Cc1cccc(C(=O)OCC(=O)NC(=O)Cc2ccccc2)c1O | -1.7% | 13.9% | 0.6% | ·
CN(CCOc1ccccc1)C(=O)C1CCN(C(=O)c2ccc(F)cc2)CC1 | -0.4% | 18.1% | -0.1% | ·
CCCCN(CC)CCNC(=O)c1cc2c(C)nc3ccccc3c2o1 | -2.9% | -12.5% | -2.0% | 5.1
COc1ccc(Cl)cc1S(=O)(=O)N1CCN(C(=O)c2cc(OC)c(OC)c(OC)c2)CC1 | -4.6% | -4.2% | -1.3% | 0.3
O=C(c1ccccc1)c1ccc(OCCCCN2CCCCC2)cc1 | -4.5% | -1.3% | -1.8% | -10.0
CCCCCOP(=O)(OCCCCC)C1(NS(=O)(=O)c2ccccc2)C=CC(=O)c2ccccc21 (configuration not stated) | 10.4% | -2.1% | 1.2% | 4.1

The list continues:
Structure | miR-21 reporter | Rango dissoc inh | Rango-impB inh | GLA inh pH 4.5
CCCN(CCC)Cc1c(C(=O)N/N=C/C(C)=C\c2ccccc2)nnn1-c1nonc1N | 0.5% | -1.8% | -1.6% | ·
Cc1cccc(S(=O)(=O)NCCc2cn3ccccc3n2)c1 | -5.4% | 4.8% | -0.4% | 8.0
CSCC[C@H](NC(=O)C1CCN(S(=O)(=O)c2ccc(C)cc2)CC1)C(=O)NCC1CCCO1 (some centres not stated) | 4.1% | 19.3% | 1.8% | 4.1
Cc1ccc(C(=O)CCC(=O)N2CCC(C(N)=O)CC2)s1 | · | 0.5% | 2.3% | ·
COc1ccccc1-c1sc2ccccc2c1-c1ccccc1OC | · | -13.5% | -2.9% | ·
CCN(C(=O)CSc1nc2ccccc2c(=O)n1Cc1ccc(C)cc1)C1CCS(=O)(=O)C1 (configuration not stated) | · | 16.2% | -3.0% | ·
COc1ccc(/C(N)=N/OC(=O)CCC2CCCC2)cc1 | -18.6% | -12.5% | 3.7% | ·
COCCNC(=O)C(Cc1c[nH]c2ccccc12)NC(=O)OCc1ccccc1 (configuration not stated) | -0.1% | 1.8% | -3.2% | ·
O=C(N/N=C\c1cc([N+](=O)[O-])ccc1N1CCOCC1)c1ccccn1 | -10.3% | 3.6% | 2.9% | ·
Oc1ccc(-c2csc(Nc3ncccn3)n2)cc1 | -53.0% | -12.2% | 2.0% | -4.3
O=C(N/N=C\c1cccc(OC(=O)c2ccco2)c1)c1ccc2c(c1)OCO2 | -10.7% | 8.2% | -4.8% | -17.8
CC1C2(C)OCC(C#N)(C(=N)O2)C1(C#N)C#N (configuration not stated) | -1.7% | · | · | 21.6
Cc1cc(/C=C2/SC(=O)N(CC(=O)OC(C)C)C2=O)c(C)n1C | -54.7% | -21.4% | ? | -13.1
COc1cccc(CNC(=S)Nc2cc(OC)ccc2OC)c1 | 3.1% | 12.0% | -1.2% | 2.2
CCC(=O)Nc1cccc(C(=O)OCC(=O)c2ccccc2Cl)c1 | -34.9% | -5.7% | -3.3% | -10.5
CNC(=S)N1N=C(c2ccc(C)cc2)CC1c1ccc(N(C)C)cc1 (configuration not stated) | -25.4% | ? | ? | -6.4
O=C1CSCN1c1cc(Cl)ccc1Cl | -0.6% | -8.2% | 0.1% | 7.9
CS(=O)(=O)c1cccc(-c2nnc(NC(=O)C3=COCCO3)o2)c1 | · | -4.2% | -4.6% | ·
O=C(NCCc1ccccc1)c1ccc(-n2cnnn2)cc1 | -52.1% | -6.6% | 1.0% | -0.1
CCC1C(=O)NCCN1Cc1nc(-c2ccc(C)s2)oc1C (configuration not stated) | -1.6% | 6.9% | 1.1% | ?
COc1cc2c(cc1OC)C(C(=O)N(C)Cc1ccccc1)C(c1cccnc1)N(C)C2=O (configuration not stated) | -1.0% | -3.6% | 1.3% | 9.0
Nc1nnnn1CC(=O)N/N=C/c1ccccn1 | 1.4% | 7.6% | -0.1% | -2.6
COc1ccc(CC(=O)Nc2cccc(C(=O)Nc3cccc(C)c3)c2)cc1 | -10.7% | · | · | -3.7
O=C(CN1CC(=O)Oc2ccccc21)OCC(=O)c1ccccc1 | -18.1% | -12.1% | 5.7% | 9.2
